Screens as filed in PubChem BioAssay.
AID504770: E. coli YBA685 growth inhibition, screen for V. cholerae RctB inhibitors; 0.27% of 130,000 active; E. coli YBA685 rctB-dependent plasmid, OD600 growth, 3 h; hits give low values; z-score (test concentration not listed);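 active means z-score under -2 on both plates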;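 further: wells of about 30 µL received 100 nL stock; score is relative to mean and SD of the test wells; the first replicate is given; strong numbers were not always called active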
Ba CapD inh: inhibitors of Bacillus anthracis CapD enzyme; 0.23% of 140,000 active; AID 492967; purified CapD enzyme, fluorescence intensity read-out; hits give low values; some hits fall short of the stated cut; z-score (test concentration not listed);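 active means z-score under -4 in either of two replicates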;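 further: stock transfer was 100 nL into about 40 µL; score is relative to mean and spread of the plate; one replicate is shown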
The depositor's hits bear a star; / = not tested or not shown. Compounds as they come; overall some 0.37% were active at least once.

SMILES	AID504770	Ba CapD inh
COc1ccc(CCN2C(=O)C3C4C=CC(C4)C3C2=O)cc1OC (configuration not stated)	0.65	-0.46
CC(C)(C)c1cc2cc(NC(=O)c3ccc(S(=O)(=O)C(F)(F)F)cc3)ccc2[nH]1	/	-0.55
CC1CC(C)CN(C(=O)CSc2nc3cc4c(cc3c(=O)n2CCC2=CCCCC2)OCO4)C1 (configuration not stated)	0.05	-0.61
O=C(CN1C(=O)C2C3c4ccccc4C(c4ccccc43)C2C1=O)Nc1ccc(O)cc1 (configuration not stated)	/	-0.4
COc1cc(CC(=O)Oc2ccc(-c3nnco3)cc2)cc(OC)c1OC	0.7	/
CCN1C(=O)c2cccc3c(NC(=O)c4ccc(S(=O)(=O)N5CCCCC5C)cc4)ccc1c23 (configuration not stated)	-0.35	1.2
O=C(Oc1ccc(Cl)cc1)c1csc(C2COc3ccccc3O2)n1 (configuration not stated)	0.2	0.55
COc1ccc(-n2nnnc2SCc2cc(=O)oc3cc(O)ccc23)cc1	1	/
O=C(COc1ccc(/C=N/NC(=O)CSc2ncccn2)cc1)NCC1CCCO1 (configuration not stated)	-0.55	2.5
CN1CCN(C(=O)CN2C(=O)S/C(=C\c3ccc(Br)cc3)C2=O)CC1	/	0.18
O=S(=O)(c1ccccc1)c1nc(-c2ccccc2Cl)oc1Nc1ccc(N2CCOCC2)cc1	-0.65	/
Cc1ccc(/C=C/C2=CC(=C(C#N)C#N)CC(C)(C)C2)o1	-0.5	/
CSc1ccccc1N1C(=O)C2CC=CCC2C1=O (configuration not stated)	-0.35	-0.19
Cc1ccc(N(O)S(=O)(=O)c2ccc(C)cc2)cc1	-0.95	/
COc1cc(OC)nc(CSCCNC(=O)c2ccc(C(C)(C)C)cc2)n1	/	-0.29
Cc1ccc(Cn2c(=O)c3ccccc3n3c(SCc4cc(=O)n5ccsc5n4)nnc23)cc1	0.4	/
Fc1cccc2c1N[C@@H](c1ccccn1)[C@H]1CC=C[C@@H]21	0.05	-0.85
CCN(CC)S(=O)(=O)c1cccc(C(=O)OCC(=O)c2ccc3c(c2)OCO3)c1	-1.9	/
Cc1cc(-c2csc(=S)n2Nc2ccccc2)ccc1Cl	-0.05	-1.6
O=C(O)Cn1nnnc1SCC(=O)Nc1ccccc1F	-0.05	6.4
Cc1ccc(C)c(NC(=O)c2ccccc2)c1	1.5	1.3
CN1CCN(Cc2ccc(Sc3ccc(Cl)cc3)c([N+](=O)[O-])c2)CC1	/	0.65
Cc1onc(-c2ccccc2)c1C(=O)OCC(=O)Nc1ccccc1	0.4	/
COC(=O)C1Cc2ccccc2CN1C(=O)CSc1nnc(-c2cc3c(s2)CCC(C)C3)o1 (configuration not stated)	0.55	/
Cc1ccc(N(C(=O)c2ccccc2)C2CS(=O)(=O)CC2OC(=O)c2ccccc2)cc1 (configuration not stated)	0	-0.57
COC(CNC(=O)c1ccc(CS(=O)(=O)Cc2ccccc2F)o1)OC	0.75	0.51
CSC(=NCc1c(Cl)cccc1Oc1ccccc1)NC#N	-0.5	-0.76
CCOc1[nH]n(-c2ccc(Cl)cc2)c(=O)c1C=Nc1ccc(Cl)cc1	/	-0.54
COC(Cn1c(SC)nnc1-c1ccc(Cl)cc1)OC	0.3	-1.3
COc1ccc2cc(CN(CC(N)=O)C(C)C)c(Cl)nc2c1	1.4	/
CCNCC(=O)NCc1ccc(Cl)cc1	1.2	/
Clc1cccc(C2C3CC=CC3c3c4c(cc5ccccc35)C3C=CCC3CN42)c1Cl (configuration not stated)	/	0.46
CCn1c2ccccc2c2cc(CN3CCN(C(=O)OCCOc4ccc([N+](=O)[O-])cn4)CC3)ccc21	/	1.3
COc1ccc(CC2C(=O)NC(=S)NC2=O)cc1	-1.2	-0.46
N#Cc1c(Cl)cccc1Oc1ccc(S(=O)(=O)N2CCN(C(=O)C3COc4ccccc4O3)CC2)cc1 (configuration not stated)	/	-1.2
CCN1CCCC1CNS(=O)(=O)c1cc(C(=O)OC)n(C)c1 (configuration not stated)	-0.8	0.69
Cc1ccc(-c2nn(C)c(=O)c3ccccc23)cc1S(=O)(=O)N1CCOCC1	0.35	-1.2
COC(=O)Nc1nc2ccccc2[nH]1	/	0.1
c1csc(CSc2nc3ccccc3s2)c1	0.9	0.45
CC(C)(C)c1ccc(COc2ccsc2C(=O)Nc2ccccc2Cl)cc1	/	0.07
CCCCCn1c(SCC(=O)NCc2ccccc2Cl)nc2cc(C(=O)NCc3ccco3)ccc2c1=O	/	0.33
CC(Nc1nc(N2CCOCC2)nc2ccccc12)c1ccccc1 (configuration not stated)	-0.2	67
Cn1nccc1N1C(=O)C2=C(SCCS2)C1=O	0.3	-1.2
Cc1cccc(C(=O)Oc2ccc(C#N)cc2)c1	0.4	-0.73
CC1OC(=O)N(c2cc(Cl)cc(Cl)c2)C1=O (configuration not stated)	1.4	-0.86
Cc1nn(C2CCS(=O)(=O)C2)c(Cl)c1CNCC1CN(CC(C)C)CCO1 (configuration not stated)	-0.15	/
CCc1ccc(/C=C(\C#N)S(=O)(=O)c2ccccc2)s1	1.4	-2.2
O=C(O)c1ccccc1-c1ncc(-c2ccccc2)o1	0.95	62
CSc1nnc(SCc2cc(=O)oc3cc(O)ccc23)s1	-0.6	0.085
CC1CN(C(=O)C(C)N2CCc3ccccc32)CC(C)O1 (configuration not stated)	1.1	/
CC1CN(CC2COC(C)(C)O2)CC(C)O1 (configuration not stated)	0.55	0.41
CN1CCC(NC2CCN(Cc3ccccc3)CC2)CC1	/	-0.26
CC(C)(C)NC(=O)c1cccc(NC(=O)CCC(=O)O)c1	0.35	-0.41
COC(=O)/C(=C(/O)CSc1nnc(Cc2csc(C)n2)o1)c1nc2ccccc2[nH]1	1.1	/
COc1ccc(C)cc1S(=O)(=O)N1CCN(C(=O)c2ncoc2-c2cccc(C)c2)CC1	1.8	/
CCCCSc1nc2c(c(=O)[nH]1)C1(CCCCC1)Cc1ccccc1-2	/	0.35
CCOP(=O)(OCC)C(NC(=O)c1ccc(C)cc1)=C(Cl)Cl	/	0.88
Cc1ccc(S(=O)(=O)N2CCC(C(=O)NC3CCCCC3)CC2)cc1	/	-0.015
O=C(O)CSCC(=O)N1CCCC1	-0.25	-2.2
N#CC1=C(N)Sc2oc(-c3ccccc3)cc(=O)c2C1c1ccccc1Cl (configuration not stated)	0.65	-0.035

The listing continues.
SMILES	AID504770	Ba CapD inh
O=C(O)CCC(=O)Nc1cccc(C(=O)c2ccccc2)c1	-0.7	-0.66
COC(=O)Nc1c(-c2ccccc2)nc2ccccn12	-0.05	69
Clc1ccc(N=NN2CCOCC2)cc1	-0.45	-1.1
COc1ccc(CNC(Cc2ccccc2)c2ccccc2)c(OC)c1C (configuration not stated)	-0.05	-0.6
O=C1c2ccccc2C(=O)N1CN(CCCn1ccnc1)CN1C(=O)c2ccccc2C1=O	-0.6	0.64
COc1ccccc1N1CCN(S(=O)(=O)c2cc(F)ccc2C)CC1	/	-0.76
O=C(CSCc1ccccc1)Nc1nccs1	-0.8	/
O=S1(=O)CCC(S(=O)(=O)NC2CCCC2)C1 (configuration not stated)	0.95	-1.4
COc1ccc2cc(C(=O)Nc3ccccc3)c(=Nc3cccc(C#N)c3)oc2c1	/	1.5
O=C(NCC1COc2ccccc2O1)c1nn(-c2ccccc2)c(=O)c2ccccc12 (configuration not stated)	0.5	/
CC1(C)C=C(c2c[nH]c(C3=CC(C)(C)NC(C)(C)C3)c2)CC(C)(C)N1	-0.75	-0.36
CC1=C(C#N)C(c2ccc(-c3ccccc3C(F)(F)F)o2)C(C#N)=C(C)N1	-0.7	44
N#Cc1ccc(-c2ccccc2F)cc1	1.9	-0.54
COC(=O)c1ccccc1NC(=O)C1COc2ccccc2O1 (configuration not stated)	-0.15	/
CCOC(=O)CSc1nc2c(sc(=S)n2Cc2ccco2)c(=O)n1-c1ccccc1	/	-0.15
O=C(NCCNc1ccc(C(F)(F)F)cc1[N+](=O)[O-])c1ccccc1F	/	0.23
c1ccc(CN2CCN(Cc3cn[nH]c3-c3ccccc3)CC2)cc1	1.8	1.4
COc1ccc(CCN2C(=O)C(C)SC2c2ccc(C#N)cc2)cc1OC (configuration not stated)	-0.75	/
N#Cc1ccc(/C=N/c2oc(-c3ccco3)c(-c3ccco3)c2C#N)cc1	1.1	/
COc1ccc(CCNS(=O)(=O)c2cccc(Cl)c2Cl)cc1	/	-0.57
Cc1cc(/C=N/O)nc(=O)[nH]1	-0.3	0.41
CN1CCCN(C(=O)c2csc3ccccc23)CC1	0.15	0.32
COc1ccc(C2C(C(=O)OCCOc3ccccc3)=C(C)NC3=C2C(=O)CC(C)(C)C3)c(OC)c1 (configuration not stated)	/	21
CCOc1ccc(C2Oc3ccccc3C3CC(c4cccc5ccccc45)=NN32)cc1 (configuration not stated)	/	11
O=c1ccc(OCCOc2ccccc2)nn1-c1ccccc1	0.05	-0.43
FC(F)(F)c1cccc(N2CCN(C(=S)Nc3ccc4c(c3)OCO4)CC2)c1	0.95	0.23
Cc1ccccc1CSc1nnc(Cn2c(=O)sc3ccccc32)n1C	-1.4	/
CCOC(=O)C1=C(CC)Nc2ccccc2N=C1N=Cc1c(O)n(CC)c(=S)n(CC)c1=O	-0.9	/
N#CCSC1=CC(=O)CC(c2ccccc2)S1 (configuration not stated)	-0.65	-0.67
CCCc1ccc(S(=O)(=O)N2CCN(Cc3cc4ccccc4o3)CC2)cc1	/	-0.33
COc1ccc(-c2nc3ccccc3c(C(N)=O)c2C)cc1	-0.7	7.5
N/C(=N/OC(=O)C1CCc2ccccc2O1)c1ccc(Cl)cc1 (configuration not stated)	/	-0.12
O=C1C(Cc2ccccc2)NC(=S)N1CC1CCCO1 (configuration not stated)	-0.25	/
COCCNC(=O)c1c[nH]c2ccc(S(=O)(=O)N(CCCN3CCOCC3)Cc3ccco3)cc2c1=O	/	11
Nc1nccc(-c2ccc(NC(=O)Nc3ccccc3)cc2)n1	0.15	74
COC(=O)c1sccc1OCc1nnc(-c2ccc(OC)cc2)o1	1.9	-0.49

Single records (already shown):
COC(=O)c1sccc1OCc1nnc(-c2ccc(OC)cc2)o1 as listed: AID504770: 1.9; Ba CapD inh: -0.49
O=c1ccc(OCCOc2ccccc2)nn1-c1ccccc1 as listed: AID504770: 0.05; Ba CapD inh: -0.43

Going on with the list.
SMILES	AID504770	Ba CapD inh
Cc1ccc(C)n1-c1ccc(C(=O)NNS(=O)(=O)c2ccccc2)cc1	/	-0.06
COc1ccc2c(=O)c(-c3ccc(Br)cc3)coc2c1	-0.45	0.5
CCOC(=O)c1cc(CC)sc1NC(=O)Cn1c(=O)oc2ccccc21	1.5	-0.04
N#CCCn1c(=S)n(CCC#N)c2ccccc21	0.1	0.93
N#C/C(=C\c1ccc(N2Cc3ccccc3C2)cc1)C(=O)NCc1ccco1	0.7	0.02
O=C(c1ccc[nH]c1=S)N1CCN(c2ccccc2Cl)CC1	/	-0.71
O=C(Cc1ccccc1)NC(=S)Nc1ccccc1O	0.85	-0.98
Cc1ccccc1C(=O)Nc1sc2c(c1C(N)=O)CCC2	-0.8	0.73
O=C(O)c1cccc2c1C(=O)N(C1CCCC1)C2	0.25	/
Cc1nc(SC(C)C(=O)O)[nH]c(=O)c1Oc1ccccc1 (configuration not stated)	-0.85	-0.22
COc1ccc2oc(=N)c(-c3nc4ccccc4[nH]3)cc2c1	-0.95	53
FC(F)Oc1ccccc1C1CC(c2cccs2)=Nc2ccccc2S1 (configuration not stated)	/	-0.29
CCOC(=O)C1=C(C)N(Cc2ccccc2)C(=O)NC1c1c(OCC)ccc2ccccc12 (configuration not stated)	/	0.38
C(=C\c1ccccc1)/CNCC1CCCO1 (configuration not stated)	-0.6	/
COc1ccc(C(=O)CCC(=O)N2CCN(c3ccccc3)CC2)cc1	-0.2	-0.015
NC(=O)C[n+]1ccn2c(NC3CCCCC3)c(-c3ccccc3O)nc2c1	-0.2	0.7
CC(C)CSc1nnc2n(-c3ccccc3)c(=O)c3ccccc3n12	1.4	/
Cc1cc(C)c(C)c(S)c1C	-0.3	/
c1nc(N2CCCCC2)c2[nH]cnc2n1	1.3	-1.5
CCC(CC)NC(=O)Cc1ccc(Cl)cc1	1.3	-0.18
COC(=O)C1C(c2ccc(OC)cc2)C(C(=O)OC)S(=O)(=O)CS1(=O)=O (configuration not stated)	0.7	0.55
CCOc1cc(/C=c2\sc3n(c2=O)C(N)=C(C#N)C(c2ccc(O)c(OCC)c2)C=3C#N)ccc1O (configuration not stated)	/	0.07
Cc1cc(C)n2nc(COc3ccccc3)nc2n1	1.1	-0.23
N#CC1=C(N)Oc2c(c(-c3ccccc3)nn2-c2ccccc2)C1c1ccc(Cl)cc1 (configuration not stated)	1.6	-0.77

3 compounds from above, ordered by number of heavy atoms, ascending:
SMILES	AID504770	Ba CapD inh
c1nc(N2CCCCC2)c2[nH]cnc2n1	1.3	-1.5
O=C(c1ccc[nH]c1=S)N1CCN(c2ccccc2Cl)CC1	/	-0.71
NC(=O)C[n+]1ccn2c(NC3CCCCC3)c(-c3ccccc3O)nc2c1	-0.2	0.7

Pulled by structure from the list above, 5 records:
SMILES	AID504770	Ba CapD inh
COc1ccc2cc(C(=O)Nc3ccccc3)c(=Nc3cccc(C#N)c3)oc2c1	/	1.5
CC(C)(C)c1ccc(COc2ccsc2C(=O)Nc2ccccc2Cl)cc1	/	0.07
CCCc1ccc(S(=O)(=O)N2CCN(Cc3cc4ccccc4o3)CC2)cc1	/	-0.33
CCOC(=O)CSc1nc2c(sc(=S)n2Cc2ccco2)c(=O)n1-c1ccccc1	/	-0.15
O=C(CN1C(=O)C2C3c4ccccc4C(c4ccccc43)C2C1=O)Nc1ccc(O)cc1 (configuration not stated)	/	-0.4
